Menin MLL FP FL – qHTS Assay for Inhibitors Targeting the Menin-MLL Interaction in MLL Related Leukemias: Competition With Fluorescein Labeled MLL-derived Peptide; AID 1766, 2009; 290,000 tested, under 10 active; FP activity change, % at 61.4 µM; Fluorescence polarization, fluorescein-MLL peptide displacement from menin; inconclusive = falling polarisation curve, or a change in total fluorescence; inactive = total fluorescence flat and polarisation flat or rising; no compound was filed as active; the % refers to the polarisation; negative = inhibition;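 note: % of control where 0% means no effect; inhibitors lower the polarisation; unlabelled MLL peptide was the positive control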
gsp agonist – qHTS for Agonist of gsp, the Etiologic Mutation Responsible for Fibrous Dysplasia/McCune-Albright Syndrome: qHTS. Potency, µM (highest dose often 76.9 µM), inactives show top-dose activation (cAMP increase), actives largely listed as activators. 340,000 compounds, 0.13% hits. gsp mutant cells, cAMP HTRF, 30 min; control for the full effect not named in the record. AID 624287, 2012; active = well fitted activation curve with a large enough effect; inconclusive = small, poorly fitted or top-dose-only effect, or another doubt; inactive = no such curve, though single readings can be large or run the other way; cell line not stated here;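 note: phosphodiesterase inhibitor Ro 20-1724 added with compounds to block cAMP breakdown; potency is the fitted concentration of half-maximal effect; nearly all actives have a fitted effect of over 60% in size; about a fifth of the inactives were tested at one dose only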
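Cells in DMEM/10% FBS with G418 were pretreated with compounds in DMSO plus […] (300 uM stock) for 30 min at 37C. cAMP was measured by HTRF (cAMP-d2 plus anti-cAMP antibody-K) after 30 min at room temperature.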
TRPV1 potentiator – HTS Assay for Compounds that Act as Potentiators of the Vanilloid Receptor 1. Transient receptor potential cation channel subfamily V member 1 (Homo sapiens), Q8NER1. TRPV1-expressing cells, Fluo-8 calcium influx, capsaicin EC20 potentiation; host cell line not named in the record; control for the full effect not named in the record. potentiation, % at 8.33 µM. 320,000 compounds, 0.02% hits. AID 540277, 2011; active means potentiation above 80%; inconclusive means 30% to 80%; inactive means below 30%; note: 0% is about no effect
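Fluo-8 calcium influx in TRPV1-expressing cells, kinetic read (ex 480/em 520 nm). Compound added and read 3 min for agonist activity, followed by capsaicin at EC20 final and 2 min further read for enhancement.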
gsp antagonist – qHTS for Antagonists of gsp, the Etiologic Mutation Responsible for Fibrous Dysplasia/McCune-Albright Syndrome: qHTS | gsp-mutant cells, cAMP HTRF, 30 min; control for the full effect not named in the record | 340,000 compounds, 0.4% hits | Potency, µM (doses to about 76.9 µM), without a hit: top-dose activity change, negative = inhibition, most hits filed as inhibitors | AID 624288, 2012; active = falling curve of any shape with a large fitted effect; inconclusive = falling curve, mostly with a smaller effect; inactive = flat or rising curve; cell line not stated here;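 note: intracellular cAMP measured with PDE inhibitor Ro 20-1724 present during compound exposure; potency is the fitted concentration of half-maximal effect; % is set by controls: 0 for no effect and ±100 for the full control effect; nearly all actives have a fitted effect of over 65% in size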
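Cells in G418 medium, seeded 16-24 h, 37C; buffer exchange to DPBS + 1 mM CaCl2, 0.5 mM MgCl2, 0.05% BSA; cpds in DMSO + […] (300 uM stock), 30 min 37C; HTRF cAMP detection.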
Sfp inh – qHTS Assay for Inhibitors of Bacillus subtilis Sfp phosphopantetheinyl transferase (PPTase); 4'-phosphopantetheinyl transferase ffp (Bacillus subtilis), Q9F4F7; 310,000 compounds, 3.5% hits; Biochemical Sfp PPTase activity, qHTS; Potency, µM, without a hit: max response, negative = inhibition, hits mostly inhibitors; active = well fitted inhibition curve with a large enough effect; inconclusive = small, poorly fitted or top-dose-only effect, or another doubt; inactive = no such curve, though single readings can be large or run the other way;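 note: the enzyme is Sfp with the accession as filed and its product quenches rhodamine fluorescence; potency is the fitted concentration of half-maximal effect; 0% = enzyme reaction without inhibitor and -100% = no enzyme wells; top concentration of the series not given in the record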
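With Hepes-Na pH 7.6 buffer containing 10 mM MgCl2, Sfp (15 nM) modified BHQ-2-YbbR (12.5 uM) using rhodamine-CoA (5 uM). Two reads 30 minutes apart at 525/598 nm yielded each well's rate.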
ClpP mod – qHTS Assay for Activators of ClpP; ATP-dependent Clp protease proteolytic subunit (Bacillus subtilis (strain 168)), P80244; purified B. subtilis ClpP, FRET peptide cleavage, 20 min; Potency, µM (doses to about 57.5 µM), for the others: top-dose activity change, negative = active; 340,000 compounds, 1.9% hits; AID 651965, 2013; active = well fitted falling curve with a large enough effect; inconclusive = small, poorly fitted or top-dose-only effect; inactive = no such curve, though single readings can be large or run the other way; note: potency is the fitted concentration of half-maximal effect; the source files actives as falling curves though it sought activators and does not explain the sign; nearly all actives have a fitted effect of over 65% in size; many hits overshoot -100%
Target sequence (P80244 whole entry, looked up): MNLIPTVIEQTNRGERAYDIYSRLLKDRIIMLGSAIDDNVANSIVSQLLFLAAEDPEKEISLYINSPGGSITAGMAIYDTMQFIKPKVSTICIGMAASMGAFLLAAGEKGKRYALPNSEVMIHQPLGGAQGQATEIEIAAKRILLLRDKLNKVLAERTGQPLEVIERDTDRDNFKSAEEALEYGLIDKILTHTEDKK
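Purified B. subtilis ClpP, 10 microg/mL final in Tris/HCl pH8 with KCl, BSA, glycerol and Tween-20, cleaved an Abz/nitrotyrosine-quenched decapeptide. Fluorescence (ex 320, em 430) was read at 0 and 20 min at room temperature. Delta was normalized to 5.8 microM ADEP and DMSO/no-enzyme controls.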
TRPML1 blocker – qHTS for Inhibitors of the Human Mucolipin Transient Receptor Potential 1 (TRPML1) | 390,000 compounds, 0.02% hits | Mucolipin-1 (Homo sapiens), Q9GZU1 | activity change, negative = inhibition, % (no concentration beside the values) | TRPML1-inducible cells, Ca2+ dye fluorescence, FDSS; stronger effect = lower value; inhibition of EC80 agonist-evoked calcium signal | AID 624415, 2012; in the data active means activity change below about -50%; inconclusive means about -30% to -50%; inactive means above about -30%;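 note: stimulus is agonist 54-4 at its EC80 concentration; % is set by controls: 0 for no effect and ±100 for the full control effect; compound concentration not given in the record; the text of the record puts the active cut at -80%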
Target sequence (Q9GZU1 whole entry, looked up): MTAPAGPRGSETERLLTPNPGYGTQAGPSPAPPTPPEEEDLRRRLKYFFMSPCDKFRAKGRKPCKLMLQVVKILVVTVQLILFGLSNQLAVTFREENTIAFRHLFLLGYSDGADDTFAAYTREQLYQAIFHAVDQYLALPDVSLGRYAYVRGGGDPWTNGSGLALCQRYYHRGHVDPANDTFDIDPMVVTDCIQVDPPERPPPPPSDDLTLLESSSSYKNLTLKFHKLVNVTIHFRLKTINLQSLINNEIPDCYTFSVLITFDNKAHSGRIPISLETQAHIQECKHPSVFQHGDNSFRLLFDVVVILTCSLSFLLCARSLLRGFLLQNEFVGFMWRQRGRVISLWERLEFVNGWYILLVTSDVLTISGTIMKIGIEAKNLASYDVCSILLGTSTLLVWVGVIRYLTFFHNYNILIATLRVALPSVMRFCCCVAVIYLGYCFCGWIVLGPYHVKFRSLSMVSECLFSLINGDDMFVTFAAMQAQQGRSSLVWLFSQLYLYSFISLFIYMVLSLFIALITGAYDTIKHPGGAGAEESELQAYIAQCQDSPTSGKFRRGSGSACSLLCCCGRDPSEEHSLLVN
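Tet-induced TRPML1-DL cells loaded with Ca8 no-wash calcium dye were read kinetically on FDSS. Compound addition was followed by EC80 agonist 54-4 (4 uM final); inhibition was read over 110 s.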
The depositor's hits bear a star; ? = inconclusive; . = not tested or not shown; & = joins results of further samples; [ ] = remark or other dose. Not a hit list (roughly 4.9% active in at least one column).

mol,Menin MLL FP FL,gsp agonist,TRPV1 potentiator,gsp antagonist,Sfp inh,ClpP mod,TRPML1 blocker
CCN(c1ccccc1)S(=O)(=O)c1ccc(C(=O)Nc2nnc(CSC)o2)cc1,3.8,5%,13,-7%,21%,-0.5%,0
CCc1nnc(NC(=O)CSc2n[nH]c(-c3ccccc3O)n2)s1,2.6,-2%[15.4 µM],5,-1%,12%,.,1
Cc1nc2scc(C)n2c(=O)c1S(=O)(=O)Nc1ccc(N2CCOCC2)cc1,-0.6,?,-6,8%,13%,-0.5%,0&-10
CCN(CC)S(=O)(=O)c1ccc(OC)nc1,2.3,-23%,-9,2%,10%,-0.2%,-2
C[C@@H]1CN([C@H](C)CO)S(=O)(=O)c2ccc(Br)cc2O[C@H]1CN(C)C(=O)Nc1ccccc1,.,-45%[inhibitor],.,.,.,-0.4%,-4
COc1coc(/C=C/C(=O)O)cc1=O,-1.4,-4%[15.4 µM],-9,8%,6%,-3.2%,1
CCNS(=O)(=O)c1ccc(CCC(=O)N2CCN(c3ccccc3)CC2)cc1,-3.8,6%,12,-12%,3%,-2.6%,37
CCOc1ccc(N(CC(=O)N2CCN(c3ccccc3F)CC2)S(=O)(=O)c2c(C)noc2C)cc1,.,8%,?,17%,21%,1.2%,-18
CCc1ccc2c(c1)C(c1ccc([N+](=O)[O-])cc1)=NNC(c1ccccc1)=N2,2.2,0%,-15,4%,-18%,1.3%,-5
COC(=O)c1ccc(C)c(NC(=O)Cc2coc3cc(OC)ccc23)c1,1.4,14%,2,-1%,16%,-5.6%,-6
O=C(NC1CCCC1)C(c1cccs1)N(C(=O)c1ccco1)c1ccc2c(c1)OCO2 (centres undefined),-2.1,7%,22,-1%,1%,0.8%,1
Cc1c(NC(=O)c2ccccc2N(C)S(=O)(=O)c2ccccc2)c(=O)n(-c2ccccc2)n1C,3.1,?,-1,6%,6%,-0.5%,3
COc1ccc(C(=O)NC2CCN(C(=O)NCc3ccccc3)CC2)cc1,3.3,-14%,-4,2%,-3%,.,13
COCCn1c(N2CCN(c3ccc(OC)cc3)CC2)nc2c1c(=O)[nH]c(=O)n2C,-1.0,-1%,-2,-3%,13%,1.0%,-1
O=C1NC[C@@H](c2ccccc2)OC(=O)[C@@H](Cc2ccc(F)cc2)C/C=C\C[C@@H]1CC(=O)N(CCO)Cc1ccccc1,.,-35%,.,-24%,.,0.8%,-8
Cc1cc(C(C)(C)C)cc(C)c1CCNC(=O)c1ccc[n+]([O-])c1,-1.1,-5%[15.4 µM],-5,4%,6%,.,4
COc1ccc(OCC(=O)Nc2ccc(NC(=O)c3ccco3)c(C)c2)cc1,-0.6,4%[15.4 µM],-15,?,23%,1.7%,39
Nn1c(SCC(=O)Nc2c(F)cc(F)cc2Br)nnc1C1CCCCC1,-0.5,2%,15,1%,10%,-0.3%,-8
Cc1ccc(NC(=O)Cn2cnc3c(cnn3C(C)(C)C)c2=O)cc1,4.2,-26%,-13,2%,-2%,-1.3%,3
COc1ccc(NC(=S)Nc2ccc(OC(F)F)cc2)cn1,-20,-6%[15.4 µM],2,19%,3%,.,21
CCOc1ccc(CN2CCC(n3nccc3NC(=O)c3ccccc3OC)CC2)cc1,-13,-4%,13,-2%,10%,-3.5%,-17
Cc1cc(SCC(=O)OC(C)C(=O)N(C)c2ccccc2)nc2ccccc12 (centres undefined),.,-4%,4,-11%,.,-5.1%,-5
CC(=O)/C(=C\N(C)C)Sc1ccc(Cl)cc1,5.6,2%,.,1%,-4%,3.2%,29
Cc1ccc(S(=O)(=O)Cc2ccc(C(=O)N3CCN(c4ccc(F)cc4)CC3)o2)cc1,-10,17%,-18,-11%,-6%,0.5%,6
N/C(Cc1ccc(Cl)cc1Cl)=N\OC(=O)Cc1ccc(Cl)cc1,0.0,1%[15.4 µM],5,12%,-9%,0.8%,44
CCOC(=O)N1CCN(C(=O)Nc2ccc3nc(-c4ccccn4)c(-c4ccccn4)nc3c2)CC1,-12,34%,-2,3%,38%[activator],-24%,-28
CCOC(=O)[C@H]1[C@H]2COc3ccc(C)cc3[C@@H]2N2C(=O)c3ccc(F)cc3NC(=O)[C@@]12C,.,.,20,-9%,.,-7.5%,-1
Cc1ccc(F)cc1CNC(=O)C1CCC(=O)N(CC2CCCCC2)C1 (centres undefined),-2.0,?,-18,11%,-4%,-3.1%,-7
Cc1ccc(N(C(=O)c2csnn2)C(C(=O)NC2CCCC2)c2cccnc2)cc1 (centres undefined),2.3,3%,0,10%,5%,.,-9
O=C(O)c1cccc2c1C(=O)N(C1CCCC1)C2,-1.1,-26%,2,0%,17%,-2.8%,4
COc1ccc(/C=C(\C#N)c2c[nH]c3ccccc23)cc1,7.2,2%[15.4 µM],-4,23%,10%,.,0
COc1ccccc1CNC(=O)C1CCCN(S(=O)(=O)c2cccc3nsnc23)C1 (centres undefined),-0.8,0%,3,-9%,22%,.,-6
CCOC(=O)C1=C(C)NC2=C(C(=O)C(C(=O)OCC)C(c3cccc(OC)c3)C2)C1c1ccccn1 (centres undefined),-4.4,?,30,-3%,8%,?,-10
Cc1ccsc1C1CC(=O)NC2=C1C(=O)CC(C)(C)C2 (centres undefined),-0.6,19%,-1,-10%,1%,1.7%,-1
Clc1ccc(CN(CC2CCCO2)C(c2cccs2)c2nnnn2C2CCCC2)cc1 (centres undefined),0.8,43%,-10,-10%,4%,-0.6%,-3
O=C(COc1ccc(F)cc1Cl)Nc1ccc(S(=O)(=O)Nc2nccs2)cc1,.,-2%,14,?,.,-1.6%,32
CC1Cc2ccccc2N1C(=O)COC(=O)c1cccnc1Cl (centres undefined),4.2,2%,4,-5%,21%,1.4%,12
Cc1ccc(N(CCC#N)C(=O)COC(=O)c2nc3nc(C)cc(C)n3n2)cc1,.,-26%,-2,9%,.,-1.9%,2
O=C(Cc1coc2ccc3ccccc3c12)Nc1nnc(C2CC2)s1,3.6,18%[15.4 µM],19,-9%,4%,-0.8%,-3
COC(=O)c1ccccc1NC(=O)CSc1n[nH]c(CC(C)C)n1,0.9,19%,-11,7%,-5%,58%&-20%,17&-1
O=C(NCCN1CCOCC1)c1cc2n(n1)C(C(F)(F)F)CC(c1ccc(F)cc1)N2 (centres undefined),2.2,-12%,9,-1%,-8%,-0.6%,-5
CCCCNC(=O)CCCCCNS(=O)(=O)c1ccc(Br)cc1,-3.5,?,9,3%,-16%,-0.3%,-1
CCCCSc1nc2ccccc2n1CC(=O)O,2.6,0%,6,-4%,10%,1.4%,8
Nc1ccc2c(c1)sc1ccccc12,1.2,-6%[15.4 µM],6,4%,13%,.,3
COc1cc(/C=N/N2CCN(Cc3ccccc3)CC2)cc(OC)c1OC,.,-49%[inhibitor],.,.,.,-3.1%,0
CC[C@]12C(=O)N(C)C[C@H]([C@@H]3C(=O)N(Cc4ccccc4)C(=O)[C@@H]31)N2C(=O)c1ccccc1,.,12%,.,8%,.,-1.1%,-2
COc1ccc(-c2noc(CSc3nc(N)cc(=O)[nH]3)n2)cc1,-2.1,?,8,-23%,-7%,-1.6%&1.6%,-12
O=C(NCCc1c[nH]c2ccccc12)/C(=C/c1cccnc1)NC(=O)c1ccccc1,0.2,0%[15.4 µM],5,-1%,7%,.,-10
COc1cccc(CN(C)S(=O)(=O)c2ccccc2Br)c1,.,.,.,-27%,.,-0.1%,18
COc1ccc(C(=O)CCC(=O)N2CCN(c3ccccc3)CC2)cc1,7.9,-67%[inhibitor],10,-9%,10%,-0.7%,1
C(=C\c1ccccc1)/CNCC1CCCO1 (centres undefined),-3.2,4%,-4,9%,10%,.,16
Cc1ccc(C(=O)N(CC(C)C)c2nc3ccccc3s2)o1,7.4,12%[15.4 µM],0,4%,-9%,0.5%,-4
Cc1c(NC(=O)/C=C/c2ccc(S(=O)(=O)N3CCOCC3)cc2)c(=O)n(-c2ccccc2)n1C,-3.5,-9%[15.4 µM],-11,6%,6%,.,23
C[C@]12c3[nH]c4cc(-c5ccco5)ccc4c3CCN1C(=O)[C@@H](CC(=O)NCCN1CCOCC1)C[C@@H]2C(=O)N1CCCCC1,.,.,.,-1%,.,4.2%,2
CCOc1ccc2[nH]c3c(NCCN(CC)CC)ncnc3c2c1,-2.6,0%[15.4 µM],4,-4%,-3%,0.7%,3
CN(Cc1ccc(F)cc1)C(=O)CCc1nnc(-c2ccccc2)o1,-2.3,16%,-7,-8%,17%,-0.2%,24
COc1ccc(C2CC(c3cccs3)=NN2C(=O)CCCC(=O)O)cc1OC (centres undefined),.,-60%[inhibitor],.,.,.,-11%,-6
CNC(=S)NNC(=O)c1sc2cc(C(F)(F)F)cnc2c1-c1ccccn1,-5.2,19%[15.4 µM],9,?,1%,.,-4
Cc1cc(NC(=O)CSc2nnc(C3CC3)n2Cc2ccccc2)no1,0.2,-7%,2,13%,12%,0.3%,43
CNC(=O)c1csc(-c2cccs2)n1,1.9,-1%[15.4 µM],2,9%,17%,-9.2%,9
O=c1[nH]c(C2CCCN(S(=O)(=O)Cc3ccccc3)C2)nc2c1nnn2Cc1cccc(Cl)c1 (centres undefined),.,-3%[15.4 µM],-3,1%,7%,-1.4%,-15
